Bioassay records deposited in PubChem by Fisher Drug Discovery Resource Center.
NPYLR7 ag: agonists of mosquito NPYLR7 receptor, primary screen, cell-based, Aedes aegypti, calcium fluorescence, mosquito biting behavior. Aedes aegypti neuropeptide Y-like receptor 7 (NPYLR7). HEK293T NPYLR7/Galpha15, GCaMP6s calcium fluorescence. activation, % at 10 µM. 270,000 tested, 0.15% active; in the data active = activation above about 40%;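 also: 0% = vehicle and 100% = reference agonist at the receptor; some compounds past the cut are filed as inactive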
NPYLR7 ag max-min: second read-out of NPYLR7 ag, no call of its own (marks repeat the call); activation, %; measured here: Max-Min RFU normalised activation; some inactives read as strong as hits;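 span of the calcium signal over five minutes; 0% = vehicle and 100% = native peptide agonist; compound fluorescence can raise it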
* = called active by the depositor; & = joins results of further samples. This is a subset; the hit share may differ from the screen's.

SMILES	NPYLR7 ag	NPYLR7 ag max-min
COCCCN(CC(=O)N(Cc1ccccc1)Cc1ccco1)C(=O)Nc1c(Cl)cccc1Cl	-9.4	-8.1
C[n+]1ccc(-c2nc3ccc4ccccc4c3c3c2CCCCC3)cc1	1.1	7.1
O=C(NCc1ccc(CN2CCCCCC2)cc1)c1cnsn1	-1.0	-1.9
COc1cccc(OCCN2CCN(C(=O)c3cc4cc(Cl)cc(Cl)c4oc3=O)CC2)c1	-1.7	0.8
COc1ccc(Cl)cc1NC(=O)CCC1CCCN(c2ccc(C(F)(F)F)cn2)C1 (stereo not given)	3.6	1.7
CCCCC(=O)Nn1cnc2sc(C)c(C)c2c1=O	-24.5	-27.2
COc1cc(NC(=O)CSc2ncnc3c2cnn3C)cc(OC)c1	8.7	0.3
Cc1ccc2oc(CN(Cc3ccccc3Cl)C(=O)c3cccc(Cl)c3)nc2c1	5.1	3.1
CCCSc1nnc2c(n1)-c1cccc3cccc-2c13	9.3	4.9
CCc1ncc(C(=O)N2CCC3(CC2)N=C(c2cccc(C)c2)NC3=O)cn1	-6.9	-6.9
COc1ccc(CN2CCN(Cc3nc4ccccc4s3)CC2CCO)cc1C (stereo not given)	4.7	5.0
CCn1cc(CN(C)C(=O)c2oc3cc(OC)ccc3c2C)cn1	8.7	5.3
O=C(NCC1(O)CCCNCC1)c1ccc(=O)[nH]c1 (stereo not given)	1.7	-1.1
O=C(c1ccc(-n2cccn2)cc1)N1CCN(S(=O)(=O)c2ccc(F)c(F)c2)CC1	-2.4	3.7
COc1ccc(-n2c(C(C)N(CC(C)C)C(=O)CCl)nc3cc(Cl)ccc3c2=O)cc1 (stereo not given)	-5.8	-7.2
Nc1c(C(=O)C23CC4CC(CC(C4)C2)C3)sc2nc(-c3ccncc3)ccc12	28.1	21.9
COc1cccc(-n2c(-c3ccccc3)cc(C(=O)N3CCN(C(=O)c4ccccc4Cl)CC3)c2C)c1	-8.4	0.8
COc1ccc(CCN(C)c2cc(Cl)nc(SCC(=O)NCCc3ccc(Cl)cc3Cl)n2)cc1OC	-16.8	-10.4
O=C(C=Cc1ccc(Br)s1)N1CCN(C(=O)c2cccs2)CC1	7.6	11.3
O=C(NN1C(=O)C2C3c4ccccc4C(c4ccccc43)C2C1=O)c1ccncc1 (stereo not given)	1.6	6.3
CC(C)N(Cc1cccc(Cl)c1)C(=O)NCc1ccncc1	0.3	-1.9
COc1ccc(CCN2CC(C(=O)N3CCN(Cc4cccc(C)c4)CC3)CCC2=O)cc1 (stereo not given)	1.3	2.0
N#Cc1ccc(CSc2ccc(S(=O)(=O)N3CCCC3)cn2)cc1	5.4	4.1
CCCn1c(=O)c2c(nc3n(Cc4ccco4)c(C)c(C)n23)n(C)c1=O	25.1	13.3
CCCCCN(Cc1nc(C(=O)OCC)cs1)C(=O)Nc1ccccc1C(F)(F)F	-4.8	3.8
CC(C)Cc1nnc2sc(CCc3nc(-c4ccco4)no3)nn12	-1.1	-1.4
CCn1c(C)c(C(=O)CN(CC2CCCO2)S(=O)(=O)c2ccc(Br)cc2)c(C)c1C(=O)OC (stereo not given)	-13.3	-3.0
COC(=O)Cc1[nH]nc2c1C1(CCSCC1)C(C#N)C(=N)O2 (stereo not given)	-0.5	-3.1
Clc1ccccc1Nc1nc2ccccc2n2cnnc12	-6.9	-8.1
CN1C[C@@H]2C[C@@H](c3cccc4c3oc3ccccc34)N3CCC[C@@]23C1=O	3.9	6.8
Cc1cc(C)n(-c2cccc(C(=O)N3CCc4c(cnc(C)c4CNC(=O)c4ccsc4)C3)c2)n1	2.7	0.9
Cn1cc(S(=O)(=O)N2CCCC2)cc1C(=O)Nc1cccc(F)c1	4.3	0.9
COc1ccccc1C(=O)N1CCN(CC(OCc2cccc(C)c2)c2ccc(Cl)cc2)CC1 (stereo not given)	-7.2	1.9
CN1CCN(N=Cc2nc(-c3ccccc3)n3ccccc23)CC1	-0.3	-3.2
Cc1ccc(CN(Cc2ccccc2)C(=O)CN(C2CCCCC2)S(=O)(=O)c2cc(Cl)ccc2Cl)s1	1.6	-3.3
CC(C)CC(C)Oc1cc(CNS(N)(=O)=O)ccn1 (stereo not given)	9.9	4.7
O=C1NC(c2ccccc2OCC(=O)N2CCCC2)Nc2ncccc21 (stereo not given)	0.1	-4.2
COc1cccc(C(=O)N(C)C)c1OCc1nc(CC(C)C)no1	2.6	1.4
C[n+]1ccc(COC(=O)Nc2ccc(Cl)cc2)cc1	1.8	3.1
COc1cccc(-c2nc3c(c(SCC(=O)N4CCOCC4)n2)Cc2c(CO)cnc(C)c2O3)c1	7.4	6.6
COc1ccc(-c2csc(-n3[nH]c(C)c(N=Nc4cccc([N+](=O)[O-])c4)c3=O)n2)cc1	-4.0	-5.6
CCCc1cnc2c(c1SCc1c(F)cccc1Cl)c(=O)n(C)c(=O)n2C	7.5	6.4
O=C(NCCc1cccs1)Nc1ccc2nc([C@@H]3O[C@H](CO)[C@@H](O)[C@H](O)[C@H]3O)[nH]c2c1	9.0	14.1
Oc1c(C(c2ccc(Br)cc2)N2CCCC2)cc(Cl)c2cccnc12 (stereo not given)	6.4	3.9
CC(=O)NC(C)(C)C(=O)N1CCC(Cc2cccc(C(=O)O)c2)C1 (stereo not given)	3.0	-1.7
Cc1ccnc2c(N3C(=O)C4CC=C(Cl)CC4C3=O)cccc12 (stereo not given)	8.1	6.6
COc1cccc(-c2cc(C(=O)Nc3ccccc3OC)c3ccccc3n2)c1	-0.3	2.3
COCc1cc(C)nc(N/N=C\c2cc(Br)ccc2O)c1C#N	-6.7	-14.8
CCN(CC)c1c(C)nc2ccc(C(=O)NCc3ccc(OC)cc3)cn12	-2.1	-7.6
CN(C(=O)C(C)(C)C)c1nnc(C23CC4CC(CC(C4)C2)C3)s1	-3.6	-3.4
CN(Cc1ccc(C#N)cc1)C(=O)Nc1ccc2oc(=O)n(C)c2c1	9.9&6.8	5.4&4.9
COc1ccc(N2CCN(C(=O)C3CC=CCC3C(=O)N3CCC(O)(c4ccccc4)CC3)CC2)cc1 (stereo not given)	-5.9	-14.0
Cc1csc(NC(=O)CSc2nc(=O)n(CCCN3CCOCC3)c3c2CCCC3)n1	-1.7	0.5
CC(=O)Nc1c(-c2cc(C)cc(C)c2)nc2ccccn12	-3.3	-0.6
Cc1nccn1-c1cc(N2CCN(S(=O)(=O)Cc3ccccc3)CC2)ncn1	-16.5	-21.2
COCCN(CC(=O)N(CCc1ccc(OC)c(OC)c1)Cc1sccc1C)C(=O)c1cccc(Cl)c1	-1.1	-0.3
Cc1c(Cl)c(C(F)(F)F)nn1CC(=O)Nc1cccc(Cl)c1	8.1	5.8
COC(=O)COc1ccc2c(=O)c(-c3ccc4c(c3)OCCO4)coc2c1	-9.2	-10.8
Cc1cc2oc(=O)cc(C)c2cc1NC(=O)CCN1CCCCCC1=O	6.1	-8.6
CC(=O)c1cccc(S(=O)(=O)N2CCC(C(=O)Nc3cccc(Cl)c3F)CC2)c1	0.3	0.3
(further entries)
SMILES	NPYLR7 ag	NPYLR7 ag max-min
CCN(CCn1cccn1)C(=O)c1cn(Cc2cccc(C(F)(F)F)c2)nn1	4.4	4.2
C=CCn1c(SCC(=O)N2CCOCC2)nnc1-c1cc(OC)cc(OC)c1	-2.5	6.9
COCCN(CCO)C(=O)Nc1cc(CSC)ccc1Cl	-4.9	-3.3
COc1ccc(C2c3[nH]c4ccccc4c3CCN2Cc2ccccn2)cc1C (stereo not given)	2.8	-0.8
CN1CCC(N(C)c2ncnc3c2CCCC3)C1=O (stereo not given)	2.5	-0.6
COc1ccc(NC(=O)C(C)NS(=O)(=O)c2ccc(Br)cc2)cn1 (stereo not given)	26.4	24.2
CC(NC(=O)CCn1nnc2ccccc21)C(=O)N(C)C (stereo not given)	-4.1	-5.8
CN=c1scc(-c2ccco2)n1N=Cc1c(O)ccc2ccccc12	16.9	10.1
O=c1c2nnn(-c3cccc(F)c3)c2ncn1Cc1ccccn1	-6.1	-10.3
Cn1c(=O)c2c(cn3ccc4ccccc4c23)n(C)c1=O	-1.8	-4.3
O=C(O)CCC(=O)NCc1ccc2[nH]c3c(c2c1)CCCC3	16.0	12.3
O=C([C@@H]1CCCO1)N1CC(c2ccccn2)C1	6.1	6.5
C1CCN(CC2CCCNC2)CC1 (stereo not given)	-14.0	-18.7
CC(C)(CNC(=O)c1cc(S(N)(=O)=O)ccc1N1CCOCC1)c1cccc(Cl)c1	4.2	2.4
N#Cc1ccsc1C(=O)N1CC2CCC1C2 (stereo not given)	3.1	0.5
C=CCCC(=O)N1CCC(CCC(=O)Nc2ccccc2)CC1	-0.2&-3.5	-3.7&-6.0
Cc1c(NS(=O)(=O)c2ccccc2)cc(C(C)C)c(O)c1S(=O)(=O)c1ccccc1	3.9	0.4
COc1cccc(OC)c1OCCCOc1cc(C)ccc1Cl	-6.3	3.6
CN(C)CCC=C1c2ccccc2C=Cc2ccccc21	-4.6&-7.5&-0.5&5.0	4.9&-13.4&-4.8&-2.4
COc1ccc(-c2c(=O)n(OCc3ccc(C(C)(C)C)cc3)c3ccccc3[n+]2[O-])cc1OC	3.7	-3.5
CCOC(=O)C1=C(C)NC(=O)NC1c1ccccc1OCC (stereo not given)	-5.0	-9.1
Cc1cccnc1C(C)NCc1cn(-c2ccccc2)nc1-c1ccc(F)cc1 (stereo not given)	-1.0	-3.9
CC(C)Oc1ccc(C(=O)N2CCC(CO)(Cc3ccc(Cl)cc3)CC2)cc1	7.7&11.3	12.0&8.0
CCCc1nc(C)sc1C(=O)Nc1cc(Cl)cc(Cl)c1	-3.6	-9.1
Cc1cc(Cl)cc2sc(N(Cc3cccnc3)C(=O)CN3C(=O)CCC3=O)nc12	2.6	2.8
CN(C)CCN(CC1CCCCC1)S(C)(=O)=O	8.4	6.6
NC(=O)c1ncnc2c1[nH]c(=O)n2-c1ccc2c(c1)OCO2	-11.7	-10.7
Cc1ncc(CN2CCCC(C(=O)Nc3ccc(-n4ccnc4C)cc3)C2)cn1 (stereo not given)	0.3&-8.1	-1.9&-9.9
O=C(CSc1nc(=O)n(CC2CCCO2)c2c1CCC2)NC1CCCCC1 (stereo not given)	-3.7	-6.3
COC(=O)C(c1cccc(C)c1)n1ccnc1-c1ccc(C)o1 (stereo not given)	2.2	0.9
O=C(O)CNC1CCS(=O)(=O)C1 (stereo not given)	-0.2	0.1
Cc1cccc(-c2noc(Cn3ccn4nc(-c5ccccc5)cc4c3=O)n2)c1	-2.8	-3.9
CCOC(=O)c1c(NC(=O)c2ccc(C)c([N+](=O)[O-])c2)sc(C(=O)Nc2ccc(OC)cc2)c1C	7.7	6.5
Cn1c(=O)[nH]c(=O)c2c1nc(Br)n2CC(=O)c1cccc([N+](=O)[O-])c1	7.7	6.7
COCCN(Cc1cccn1Cc1cccc(F)c1)CC(C)O (stereo not given)	0.2	3.7
NC(=O)CN1CCCC(N2CCN(c3cccc(C(F)(F)F)c3)CC2)C1 (stereo not given)	9.1	4.6
COCCCNC(=O)c1cc(NC(=O)c2c(OC)cccc2OC)ccc1N1CCc2ccccc2C1	-4.6	-1.9
CCOCCn1cnc(-c2ccccc2)c1-c1ccc(-c2cncnc2)cc1	5.5	-8.4
O=C(NCc1ccc2c(c1)OCO2)N1CCN(c2ccccc2F)CC1	-1.0	12.4
CC(C)OCC1Cn2c(nc3c2c(=O)n(C)c(=O)n3C)O1 (stereo not given)	16.8	15.4
CC(=O)Oc1ccc(Cn2c(C)c(C(=O)NCc3ccc(C#N)cc3)sc2=O)cc1	53.2*	43.3*
CCc1ccccc1NC(=O)N1CCC(CCC(=O)Nc2ccccc2)CC1	-9.6	-12.9
N=C1/C(=C\c2ccc([N+](=O)[O-])cc2)C(=O)N=C2SC=NN12	1.0	1.4
CCN(c1ccc(OC)cc1)c1ncnc2nc[nH]c12	-0.8	-2.9
O=C(O)CSc1nnc(-c2cn[nH]c2)n1-c1ccccc1C(F)(F)F	28.1	21.9
N#Cc1cnn(-c2nc3ccccc3[nH]2)c1N	-8.3	-15.9
CCc1cc(C(=O)N2CCOC(c3ccc(Cl)c(Cl)c3)C2)on1 (stereo not given)	0.1	0.2
Cc1cc(C(=O)N2CCN(c3ncccc3C(=O)NCC3CCCO3)CC2)c(C)o1 (stereo not given)	-23.0	-25.6
Cc1nc(Nc2ccc(NC(=O)Nc3ccccc3)cc2)cc(OC(C)C)n1	19.0	14.0
CCCCn1c(SCc2cc(F)cc3cccnc23)n[nH]c1=O	8.1	3.7
